# Tg IFNy HTS = blocks Toxoplasma gondii growth in the presence of IFN-gamma; Toxoplasma gondii growth in IFN-gamma-treated host cells; active compounds read low; reference of the scale not given here; activity change, negative = inhibition, %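 (about 20 µM by stock and volumes)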; hit rate 3.8% among 69,000; AID 1259416;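 active = below -70%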;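 note: host cells are HeLa cells infected with Toxoplasma gondii; parasite growth read as luciferase light; one replicate is shown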
# * hit, by the source's call; & = joins results of further samples; ! = repeats disagree. Not all compounds are listed; rates above refer to the full screens.
SMILES,Tg IFNy HTS
COCc1c(C(=O)Nc2cccc(CN3CCC(C)CC3)c2)noc1C,21.9
Cc1nc(-c2ccccc2)nc2c1CCN(c1cnccn1)CC2,65.9
O=C1COC2(CCN(c3ncccn3)CC2)CN1Cc1cccc(F)c1,-3.5
COc1cc2c(cc1OC)[C@@H]1Cc3ccc(OC)c(OC)c3CN1CC2,6.0
COC(=O)c1c(NCC(C)O)c2cc(F)ccc2[nH]c1=O (stereo not given),19.5
Cc1nonc1C(=O)N1CCC(c2cc(C(C)C)n[nH]2)CC1,-5.9
CCCc1cncnc1N1CCN(Cc2cccn2-c2ncccn2)CC1,-11.9
C/C=C/c1ccc([C@@H]2[C@@H](C#N)N(c3nc(CC)cs3)[C@@H]2CO)cc1,2.0
CCCN(Cc1nccn1C)C(=O)c1cccc(C2CCNC2)c1 (stereo not given),6.3
CCOc1ccccc1NS(=O)(=O)c1cc2c3c(c1)CCC(=O)N3CCC2,1.2
COc1ccc2c(c1)NC1(CCN(S(=O)(=O)c3ccc(C(C)C)cc3)CC1)c1cccn1-2,-5.3
CCN1C[C@]23CN(C(=O)C4CCC4)C[C@@H](C[C@H]2S1(=O)=O)O3,0.7
O=C1C(Cc2ccccc2)N=C2c3ccccc3N=C(SCc3ccc(Cl)cc3)N12 (stereo not given),-27.0
CN1CCC(=NOC(=O)Nc2ccc(Cl)cc2)CC1,-1.8
O=C(NCCCc1cccnc1)C1CCCN(C2CCN(C(=O)C3CC3)CC2)C1 (stereo not given),-0.1
CCS(=O)(=O)Nc1ccc2c(c1)C(=O)N(C)[C@@H]1CC[C@@H](CC(=O)NCc3ccc(OC)cc3)O[C@H]1CO2,9.7
CN(C)CC#Cc1ccc(-c2ccn(S(=O)(=O)c3ccc(Cl)cc3)n2)s1,-42.8
CSc1ccc(CN2CCCC(OCc3cccnc3)C2)cc1 (stereo not given),1.6
COc1ccccc1C(=O)NCCc1csc(-c2cccc(F)c2)n1,-77.9*
O=C(CCNc1c(-c2ccccc2)nc2cnccn12)N1CCC(N2CCCCC2)CC1,3.5
COc1ccc(S(=O)(=O)Nc2ccc3c(c2)C(=O)N([C@@H](C)CO)C[C@@H](C)[C@@H](CN(C)Cc2ccc(C(F)(F)F)cc2)OCCCC[C@H](C)O3)cc1,-120.3*
O=C1c2ccccc2C(=O)N1N1C(=O)C2C3C=CC(C3)C2C1=O (stereo not given),2.1
c1ccc(N2CCC3(COCCN(c4ncccn4)C3)C2)nc1 (stereo not given),-3.0
CCCN1C[C@H](C)[C@H](OC)CN(C)C(=O)c2ccc(NS(=O)(=O)c3cn(C)cn3)cc2OC[C@H]1C,-8.7
CCNc1nc(NC(C)C)nc(NS(=O)(=O)c2ccc(N)cc2)n1,12.1
CCOC(=O)[C@@]12CCCN(CC3CCOCC3)C[C@@H]1CN(C(C)=O)C2,-0.7
COc1ccccc1CNC(=O)CN1CCC(O)(c2ccccc2C)C1 (stereo not given),4.1
Cc1ccc(C2(C(=O)N3CCNCC3C(=O)N3CCN(C)CC3)CC2)cc1 (stereo not given),-5.2
COCCCNc1ncnc2c1cnn2-c1ccc(C)cc1C,12.4
Cc1ccc(NC(=O)[C@H]2C[C@H](C(=O)O)CN(C3Cc4ccccc4C3)C2)cn1,10.9
CCc1c(C)sc2ncnc(N3CCN(C4CCOCC4)CC3)c12,1.6
COc1cccc(CN2CCC3(CCN(C(=O)N4CCCC4)C3)C2=O)c1 (stereo not given),96.6
COc1ccc(CN2[C@H](CO)[C@H]3c4ccccc4N(C(=O)NC(C)C)C[C@H]32)cc1,-6.5
CCc1nnc(NC(=O)c2ncoc2-c2cccs2)s1,-9.7
O=C1CCc2cc(NC(=O)c3cccc(C(F)(F)F)c3)ccc2N1,-14.4
Cc1oc2c(F)c(F)c(F)c(F)c2c1-c1noc(C(C)(C)C)n1,-25.1
O=S(=O)(c1ccccc1)N1CC2(C1)[C@H](c1ccccc1)[C@H](CO)N2CCC(F)(F)F,-12.4
c1ccc2c(NC3=NCCCCS3)cccc2c1,-14.5
Cc1ccc(Cl)cc1NC(=O)Cn1c(=O)cc(C(=O)N2CCOCC2)c2ccccc21,6.6
Cc1ccc(NC(=O)CC(=O)N2CCCC2c2c(C)noc2C)c(C)c1 (stereo not given),4.3
Cc1cc2nc(C3CCN(C(=O)c4cc(-c5ccco5)on4)CC3)cc(C(F)(F)F)n2n1,-2.0
CC(C)C(Cn1ccnc1)NC(=O)c1ccccc1N1CCOCC1 (stereo not given),-2.4
CCOc1ccccc1CNC(=O)c1nc(Nc2ccc(CC)cc2)c2ccccc2n1,-52.3
Cc1noc(-c2cc(=O)n(CC(=O)NC3CCCC3)c3ccccc23)n1,68.0
CCCC#Cc1ccc2c(c1)O[C@@H](CN(C)Cc1ccccn1)[C@H](C)CN([C@@H](C)CO)S2(=O)=O,-28.8
Cc1ccc(/C=N/NC(=O)C2(C)CC2(Br)Br)cc1 (stereo not given),10.6
O=C(CN(Cc1ccccc1)c1ccccc1)c1ccc(-c2ccccc2)cc1,149.3
COc1ccc(-c2nc3c(s2)CN(S(=O)(=O)Cc2ccccc2)CC3)cc1OC,-35.0
CCCSCCCNc1nc(-c2nnc(-c3ccc(OC)cc3)o2)nc2ccccc12,56.9
CCN1CCC2(CC1)OC(=O)C(C)=C2C(=O)Nc1ccc(OC)c(Cl)c1,218.3
Cc1cc(NC(=O)N2CCC3(CC2)Nc2ccccc2-n2cccc23)ccc1Br,-116.4*
O=C(Nc1ccc2c(c1)CCC2)C1CC(=O)N(CCc2c[nH]c3ccc(Cl)cc23)C1 (stereo not given),-111.3*
CN(C)CCNC(=O)Cn1ncc2c(N3CCN(c4ccccc4)CC3)ncnc21,72.3
Cc1nc(CC2CCCN(S(=O)(=O)c3cn(C)cn3)C2)cc(Nc2ncc(C)s2)n1 (stereo not given),-97.5*
CCn1c(=O)c(-c2nc(-c3cccs3)no2)c(O)c2ccccc21,34.9
C#C[C@]1(OC(C)=O)CCC2C3CCC4=CC(=O)CC[C@@H]4C3CC[C@@]21C (stereo not given in full),-82.5*!
CC(C)(C)C(=O)N1CCC2(CC1)Nc1cccnc1NC2=NCc1ccccc1,182.3
CCCS(=O)(=O)N1CCC(n2nnn(-c3ccccc3)c2=O)CC1,-1.6
CCN(Cc1ccccc1)C(=O)c1cc(COc2cncc(Cl)c2)on1,-30.1
COCCNC(=O)C[C@H]1CC[C@H]2[C@@H](COc3ccc(NC(=O)Nc4cccc(F)c4)cc3C(=O)N2C)O1,0.0
# (next part)
SMILES,Tg IFNy HTS
CN(Cc1ccccc1N1CCOCC1)C(=O)CN1CCC(c2ccccc2)CC1,-12.0
COc1cccc(-c2[nH]ncc2CN2CCCC(O)(c3ccc(F)cc3)CC2)c1 (stereo not given),6.3
CCc1nncn1-c1ccccc1OCC(=O)O,156.4
CS(=O)(=O)NCCc1csc(-c2ccc(F)cc2)n1,128.0
COc1ccc(C(=O)NCCc2nc3ccccc3[nH]2)cc1,3.2
N#C[C@H]1[C@@H](c2ccccc2)[C@@H](CO)N1C(=O)Nc1cccc(F)c1,3.8
O=C(CC1CCCC1)N1CCC2(CC1)Nc1ccccc1-n1cccc12,-25.2
c1ccc2ncc(-c3ccc(CN4CCCC4)cn3)cc2c1,217.3
CN(CCNC(=O)CCNC(=O)c1ccccc1F)S(C)(=O)=O,-10.1
Cc1noc(CN(C)C(=O)C(C)Oc2ccc3oc(=O)cc(C)c3c2)n1 (stereo not given),-1.0
Nc1ccc(Nc2nc(-c3ccccn3)cs2)cc1,286.5
CCc1ccc(NC(=O)Cn2c(=O)cc(C(=O)N3CCOCC3)c3ccccc32)cc1,9.1
CN1CCC2(CN(c3ncccn3)CC23CCN(C(=O)c2ccccn2)CC3)C1=O (stereo not given),1.8
C[C@H](CO)N1C[C@H](C)[C@@H](CN(C)S(=O)(=O)c2ccccc2C#N)OCc2cnnn2CCCC1=O,165.4
Cc1nc(SCC(=O)Nc2cccc(C(F)(F)F)c2)oc1C,21.0
O=c1[nH]c2cc(F)ccc2c(O)c1-c1nc(-c2cccnc2)no1,92.0
Fc1ccc(Cn2ncc3c2CN(c2ccc4ccccc4n2)C3)cc1,-15.2
COCCC(=O)N1Cc2ccnn2CC(COc2cccnc2)C1 (stereo not given),2.4
Cc1cc(C(=O)N2CCC(c3nc(C(=O)N4CCSCC4)c(C)o3)CC2)no1,-31.2
Cc1[nH]c2c(CN3CCC(CNS(C)(=O)=O)C3)cccc2c1C (stereo not given),53.9
Cc1ccc(C2c3[nH]c4ccccc4c3CCN2C(=O)c2cccc(C)c2)cc1 (stereo not given),226.4
CS(=O)(=O)N1CCOC2CCN(Cc3ccc[nH]3)CCC21 (stereo not given),-9.2
CN1CC(=O)N2C[C@H](NC(=O)CCc3cccnc3)C[C@H]2C1=O,22.9
CN1c2cc(O)c(N=NC(N)=O)cc2CC1S(=O)(=O)O (stereo not given),11.3
CCOc1ccc(-c2nc(Cn3nnc(C(=O)Nc4ccccc4OCC)c3C)c(C)o2)cc1,-9.4
C[C@@H]1CN([C@@H](C)CO)C(=O)c2ccccc2-c2ccccc2CO[C@@H]1CN(C)S(=O)(=O)Cc1ccccc1,-49.9
Brc1ccc(CSC2=NCN(Cc3cccnc3)CN2)cc1,9.3
O=C(NCC1OCCc2cn(CC3CCOCC3)nc21)c1ccccc1 (stereo not given),27.4
Cc1ccc(S(=O)(=O)NCC(c2cccnc2)c2cn(C)c3ccccc23)cc1C (stereo not given),-9.0
O=C(C[C@H]1CC[C@@H]2[C@H](COC[C@H](O)CN2Cc2nccs2)O1)N1CCC(Cc2ccccc2)CC1,2.4
Cn1cnc2c(NCc3ccccc3)nc(C3CCN(S(C)(=O)=O)CC3)cc21,-8.0
C=CCc1cccc2cc(C(=O)Nc3c(C)n(C)n(-c4ccccc4)c3=O)c(=O)oc12,-3.4
Cc1ccc(OC(=O)c2cc(C)nn2C(C)(C)C)cc1,11.4
COc1ccc(CCn2cncc2-c2cnc(N3CCOCC3)nc2)cc1C,1.3
C[C@@]1(F)[C@H](O)[C@@H](CO)O[C@H]1n1ccc(N)nc1=O,9.0
CCCc1ncncc1C(=O)N1CCC2(CCCO2)CC1,-35.6
CC1CN(CCCn2c3ccccc3c3ccccc32)CC(C)N1 (stereo not given),-4.0
CCCC1c2ccsc2CCN1C(=O)c1ccc(Cl)cc1 (stereo not given),37.4
CCC(C(=O)NCCCN1CCCC1=O)n1c2ccccc2c2cnn(C)c(=O)c21 (stereo not given),113.4
OC(CCN1CCCCC1)c1ccc(-c2ccccc2)cc1 (stereo not given),-34.9
O=C(O)Cn1cc(CN2CCCC2)c2ccccc21,-42.7
O=C1NCCCCC1N1CCS(=O)(=O)CC1 (stereo not given),2.9
CC(C)n1c(-c2cncn2CCCN2CCCCC2)nc2ccccc21,14.2
c1cc2c3c(c1)c1c(n3CCNC2)CCCC1,16.4
NC(=O)C1(Cc2cccc(-c3cncnc3)c2)CCCN1 (stereo not given),-6.1
CCn1cnnc1CCNC(=O)c1cn(Cc2ccccc2F)nn1,7.4
CC(=O)NC1(c2ccccc2)CCN(c2ncccn2)CC1,7.5
O=C(Cc1ccccn1)N1[C@@H](CO)[C@@H]2c3ccccc3NC[C@@H]21,4.0
CC(C)CNC(=O)Cn1ncc2c(N3CCN(c4ccccn4)CC3)ncnc21,65.3
CCn1ccc(C(=O)N2CCCN(CC3CC3)C(C(C)C)C2)cc1=O (stereo not given),0.8
Cc1c(C(=O)O)cnc2nc(C(F)(F)F)nn12,32.1
C=CCn1c(=O)c(C(=O)Nc2nccs2)c(O)c2ccccc21,67.5
CC(Oc1cccc(C(F)(F)F)c1)C(=O)NCCc1nc(C(C)(C)C)cs1 (stereo not given),11.8
Cc1ccc(CN(C(=O)c2cc(=O)[nH][nH]2)C2CC2)s1,-14.6
O=C(c1ccco1)N1C[C@@H]2COC[C@@]2(Cc2nnc(C3CC3)o2)C1,4.5
Cc1cccc(NC(=O)Cn2c(=O)ccc3cc(S(=O)(=O)N4CCCC4)ccc32)c1C,-39.7
Cc1ccc(S(=O)(=O)Nc2ccc(-c3nc(-c4ccc(C)c(C)c4)co3)cc2)cc1,2.7
O=C(NCc1cn2c(n1)CN(Cc1ccc(F)cc1)CC2)C1CCC1,50.8
CN(C)CC1(O)CCCN(C(=O)CCn2ccccc2=O)C1 (stereo not given),-3.0
Cc1ccc2nc(CN(C)Cc3c(C)nn(C)c3Cl)[nH]c2c1,75.9
COc1ccc(Cc2nnc(SC)[nH]c2=O)cc1,-4.7
O=C(c1ccc2c(c1)OCO2)N1C[C@@H]2N[C@H](C1)C2c1ccc(/C=C/c2ccccc2)cc1 (stereo not given in full),-47.3&-69.8

# Screening results deposited in PubChem BioAssay by Broad Institute.
